eIF4H inh: human eIF4H binding inhibitors, primary screen, translation initiation inhibitor project, biochemical, uHTS, fluorescence polarization; inhibition, % at 35 µM; 290,000 compounds, 0.94% hits; Eukaryotic translation initiation factor 4H (Homo sapiens), Q15056; AID 2012, 2009; eIF4H fluorescence polarization binding assay;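 active = 50% or more with normal probe brightness, or confirmed in later tests; inconclusive = above 50% with abnormal brightness, or retests that disagree; inactive = below 50% or failed in later tests; about a fifth of its hits are not listed in these tables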;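 note: calls also rest on retests at 20 µM and on dose response follow-up; 0% = protein and probe with vehicle and 100% = probe without protein; strong numbers were not always called active; many hits fall short of the cut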
PABP polyA inh: PABP poly(A) RNA binding inhibitors, primary screen, biochemical, fluorescence polarization, uHTS | Polyadenylate-binding protein 1 (Homo sapiens), P11940 | inhibition, % at 35 µM | 290,000 compounds, 1% hits | AID 2014, 2009;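 active = 50% or more with normal probe brightness, or confirmed in later tests; inconclusive = above 50% with abnormal brightness, or retests that disagree; inactive = below 50% or failed in later tests; about a fifth of its hits are not listed in these tables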;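 note: calls also rest on retests at 20 µM and on dose response follow-up; controls were probe without protein and protein plus probe with vehicle; some compounds called inactive have numbers as strong as hits; many hits fall short of the cut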
Target sequence (P11940 whole entry, looked up): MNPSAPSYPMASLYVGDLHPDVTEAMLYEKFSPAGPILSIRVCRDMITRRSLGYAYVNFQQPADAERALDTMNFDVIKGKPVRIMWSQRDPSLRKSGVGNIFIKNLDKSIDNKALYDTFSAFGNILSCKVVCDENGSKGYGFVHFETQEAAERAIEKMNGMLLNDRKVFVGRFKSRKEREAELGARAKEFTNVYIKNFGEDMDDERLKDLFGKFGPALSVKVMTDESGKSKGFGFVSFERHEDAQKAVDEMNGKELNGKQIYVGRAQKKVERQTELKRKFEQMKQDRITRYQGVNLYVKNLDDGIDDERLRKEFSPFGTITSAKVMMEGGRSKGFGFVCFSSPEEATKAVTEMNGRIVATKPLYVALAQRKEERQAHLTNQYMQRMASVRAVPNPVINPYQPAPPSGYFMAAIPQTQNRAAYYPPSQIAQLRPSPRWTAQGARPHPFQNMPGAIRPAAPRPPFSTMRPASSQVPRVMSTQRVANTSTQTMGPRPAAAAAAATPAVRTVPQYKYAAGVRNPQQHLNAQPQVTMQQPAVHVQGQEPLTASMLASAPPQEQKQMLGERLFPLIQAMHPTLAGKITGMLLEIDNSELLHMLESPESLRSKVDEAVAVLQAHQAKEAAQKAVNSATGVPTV
Yeast UUG start: modulators of yeast start codon fidelity, primary screen, whole organism, S. cerevisiae, single point, plate reader | activity score, % at 18.7 µM | 350,000 compounds, 0.13% hits | S. cerevisiae UUG-firefly luciferase reporter, luminescence/redox ratio | AID 602363, 2012;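 active = replicate mean at a twofold rise or more, about +100% in these data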;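 note: firefly luciferase made from a UUG start codon reports start codon fidelity; reporter light over untreated wells divided by growth signal over untreated wells; some hits fall short of that in this replicate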
Env fusion inh: inhibitors of HIV-1 Env-driven cell-cell fusion, primary screen, HeLa-JRFL effector, CEM21 target cells, luciferase. AID 651610, 2012. 360,000 compounds, 1.1% hits. inhibition, % at 12.3 µM;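 active = mean replicate inhibition score of at least 50 and every replicate individually at or above 50; inconclusive = only one of the two criteria met; inactive = mean below 50 and not all replicates reaching 50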;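 note: 0% = plate neutral controls and 100% = maraviroc near 300 nM; one replicate is shown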
CSC inhib: cancer stem cell viability inhibitors, primary screen, luminescence. cancer stem cell-like cells viability. inhibition, % at 7.5 µM. 300,000 compounds, 1.1% hits. AID 2717, 2010;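 active = mean at 75% or more and at least half the replicates too; inconclusive = mean and replicates disagree; tested in HMLE shEcad cells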;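 note: 0% = median of negative and 100% = median of positive control wells; the first replicate is given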
MT1-MMP act inh: blockers of MT1-MMP proenzyme processing, primary screen, HT1080 RFP-PRO-GFP cells, GFP/RFP fluorescence | GFP/RFP ratio change, % at 20 µM | 360,000 compounds, 0.061% hits | Matrix metalloproteinase-14 (Homo sapiens), P50281 | AID 651647, 2012 | GFP/RFP ratio fluorescence, overnight; percent of plate control window, DMSO zero;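 active = GFP/RFP ratio change of at least 30% with cell ATP level not reduced by more than half and red fluorescence within 50% of control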; note: strong numbers were not always called active
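Material – HT1080 RFP-PRO-GFP cells · Control set – DMSO wells and RFP-L50D-GFP cells · Incubation – overnight cell settling, then overnight compound exposure, 37 °C, 5% CO2 · Compound dosing – single-point 20 µM compound, 1% DMSO · Read-out – GFP/RFP fluorescence ratio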
Rce1 inh: yeast Rce1p protease inhibitors, primary screen, biochemical, fluorescence, cell-free homogeneous; CAAX prenyl protease 2 (Saccharomyces cerevisiae (strain ATCC 204508 / S288c)), Q03530; yeast membranes, quenched prenylated peptide cleavage fluorescence; calls only; 290,000 compounds, 0.27% hits; AID 2563, 2010;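 active = fall in fluorescence gain of 50% or more versus controls, with final raw signal at or below 3038400; inconclusive = same 50% fall but final raw signal above 3038400; inactive = fall in fluorescence gain under 50%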;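 note: plate controls were neutral control wells for no effect and wells lacking membranes for full effect; tested at 10 µM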
Target sequence (Q03530 whole entry, looked up): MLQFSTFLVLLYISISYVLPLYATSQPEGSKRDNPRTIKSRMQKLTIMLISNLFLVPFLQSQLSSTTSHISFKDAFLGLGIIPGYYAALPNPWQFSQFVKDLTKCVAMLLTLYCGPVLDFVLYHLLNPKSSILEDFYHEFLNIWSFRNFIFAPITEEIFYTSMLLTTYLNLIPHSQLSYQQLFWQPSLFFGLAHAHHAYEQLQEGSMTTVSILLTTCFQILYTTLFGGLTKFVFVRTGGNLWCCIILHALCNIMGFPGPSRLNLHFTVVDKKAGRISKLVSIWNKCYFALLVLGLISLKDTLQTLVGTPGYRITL
MT1-MMP act inh RFP: further read-out of MT1-MMP act inh, marked with its call; RFP signal change, %; measured here: RFP expression control read;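 0 = vehicle wells; hits needed this value within 50% of zero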
The depositor's hits bear a star; i = inactive; ? = inconclusive; nt = no result given. The list is partial; rates above refer to the full screens.

SMILES	eIF4H inh	PABP polyA inh	Yeast UUG start	Env fusion inh	CSC inhib	MT1-MMP act inh	MT1-MMP act inh RFP	Rce1 inh
CC1(C)OC1(C#N)c1ccccc1 (stereo not drawn)	nt	nt	-21	-23	nt	-3	2	nt
O=c1[nH]c2ccc(S(=O)(=O)N3CCCCC3)cc2s1	-12	-18	-1	-34	-12	2	3	i
NS(=O)(=O)c1ccc(CCNC(=O)C(=O)NCC2OCCN2S(=O)(=O)c2ccc(F)cc2)cc1 (stereo not drawn)	-12	1	-14	-3	8	2	0	i
CC1CCC2(CC1)NC(=O)N(NC(=O)CCc1c[nH]c3ccccc13)C2=O (stereo not drawn)	nt	nt	7	-18	nt	2	1	nt
O=C(CC1SC(=Nc2ccccc2)N(CCCCO)C1=O)NCc1ccccc1 (stereo not drawn)	0	8	17	nt	2	-1	4	i
CC(C)C(NC(=O)c1cccnc1)C(=O)O (stereo not drawn)	-8	-1	-17	10	-2	-5	1	i
COc1ccc(NC(=O)COC(=O)c2cc(OC)c(OC)c(OC)c2)c([N+](=O)[O-])c1	-8	-3	-13	-6	-10	2	-1	i
Cc1nnc2n1N=CC=C(c1ccccc1)S2	-4	-5	-7	26	4	-1	-6	i
N#CC1(NC(=O)CSc2nc3ccccc3s2)CCCCC1	nt	nt	-8	nt	-12	4	0	nt
CC[C@H](NC(=O)c1c(C)c(-c2ccccc2)nc2ccccc12)c1ccccc1	-5	0	-41	nt	-10	0	6	i
CCOC(=O)N1CCC(c2cc(=O)n(-c3ccccc3)[nH]2)CC1	-5	-15	nt	11	0	9	2	i
COc1ccc2oc(C(=O)OCC(=O)N3CCCCC3)c(C)c2c1	nt	nt	-13	-23	1	1	3	i
CCN(C(=O)COC(=O)c1oc2ccc(OC)cc2c1C)C1CCS(=O)(=O)C1 (stereo not drawn)	nt	nt	16	2	nt	0	1	nt
C/C(=N/NC(=O)c1ccncc1)c1cc2ccc(O)cc2oc1=O	?	-11	nt	nt	8	-21	-2	nt
Oc1c(Cl)cc(Cl)cc1/C=N/NC(=S)NC1CC2C=CC1C2 (stereo not drawn)	21	-6	-27	29	100*	-7	-14	i
CCN(Cc1ccncc1)Cc1ccc(OC)c(OC)c1	12	11	-8	14	-6	0	4	i
Cc1cc(Cl)ccc1NC(=S)NC1CCCC1	-6	-6	-16	-22	-16	-2	-5	i
CCc1sc(C(=O)N2CCN(C(=O)c3ccccc3)CC2)cc1C	nt	nt	-2	11	-7	-5	-1	nt
Nc1ccn([C@@H]2O[C@H](C(=O)N[C@H](CO)c3ccccc3)[C@@H](O)[C@H]2O)c(=O)n1	nt	nt	-7	?	nt	1	6	nt
Cc1cccc(NC(=O)CCNS(=O)(=O)c2ccc(Cl)cc2)c1	5	14	-11	27	6	-3	-1	i
Oc1ccc(CNc2ccccc2O)cc1	-10	-10	-11	13	13	5	5	i
CCC(C)/C(C)=N/Nc1ccc(S(N)(=O)=O)cc1[N+](=O)[O-] (stereo not drawn)	-8	12	-12	-6	14	8	-3	i
CCN(C(=O)CSc1nnc(-c2ccc3c(c2)OCO3)o1)C1CCS(=O)(=O)C1 (stereo not drawn)	nt	nt	-2	-2	nt	7	2	nt
NC(=O)NOCc1ccccc1	3	0	nt	5	3	-4	0	i
CCN(CC(=O)Nc1c(F)cccc1F)C(=O)C1CCN(C(=O)c2ccc(F)cc2)CC1	nt	nt	-6	nt	5	-1	4	i
Cc1ccc(Cl)cc1-c1cc(C(=O)NCc2cc(C(F)(F)F)cc(C(F)(F)F)c2)[nH]n1	nt	nt	7	16	nt	5	-6	nt
O=C(NC1CCN(Cc2ccccc2)CC1)C1CCN(S(=O)(=O)c2ccc(Cl)cc2)CC1	-4	-12	nt	15	nt	-2	-12	i
COc1ccc(N=C2SC(CC(=O)Nc3ccc(F)cc3)C(=O)N2Cc2ccco2)cc1 (stereo not drawn)	9	1	-5	4	9	-2	-6	i
CCC(=O)N(CCc1ccccc1C)Cc1cc2ccc(C)cc2[nH]c1=O	12	7	-21	-5	-8	2	-4	i
CN1C(=O)c2cccc3c(S(=O)(=O)N(C)C)ccc1c23	-2	5	-17	2	-6	-1	-1	i
O=C(NNC(=O)c1sc2ccccc2c1Cl)Nc1ccc(Cl)cc1	1	-9	-18	nt	12	12	5	i
CCN(CC)CCOC(=O)c1ccc(NC(=O)CSc2nnc(-c3cccs3)n2CC)cc1	nt	nt	-13	24	nt	-1	-2	nt
COc1ccc(CNC(=O)CSc2n[nH]c(N)n2)cc1	-9	-4	-18	10	-14	-1	2	i
Cc1cccc(NC(=O)c2sc(C)nc2C)c1	2	29	-7	-97	6	3	6	i
CN(CC(=O)Nc1ccc(F)cc1[N+](=O)[O-])Cc1ccccc1	-3	-1	nt	4	-8	1	1	i
Cc1nn(C)cc1CN(C)C(=O)c1ccc(OC2CCN(Cc3ccccn3)CC2)cc1	14	4	-17	-8	-9	3	-1	i
Cc1ccc(/C=N/Nc2ccc(F)cc2)s1	1	1	-14	-13	40	-3	-1	i
O=C(Cc1cccs1)N1CCN=C1SCc1cccc(F)c1	0	0	-12	25	-11	-1	1	i
N/C(=N\c1nc2ccccc2o1)NC(=O)c1cccc(Cl)c1	2	-6	-20	-2	20	3	-5	i
O=C(CCC(=O)c1cccs1)OCC(=O)c1ccc(Cl)s1	-2	10	1	nt	-5	10	2	i
COc1cc(N)c(Cl)cc1C(=O)NC1CCN(Cc2ccccc2)CC1	nt	nt	16	26	nt	2	1	nt
CC(=O)O[C@@H]1[C@H](OC(=O)CC(C)C)c2c(ccc3ccc(=O)oc23)OC1(C)C	-4	4	-3	5	6	-4	-5	i
COc1cc2c(cc1OC)C1(Nc3c-2c(C)nn3-c2ccccc2)C(=O)Nc2ccccc21 (stereo not drawn)	-2	3	-2	nt	nt	-13	-1	nt
O=C(O)CCSCC(=O)Nc1c(C(=O)C2CC2)oc2ccccc12	-3	-1	-8	nt	-23	4	1	i
Cc1ccc(-n2nc(C(N)=O)nc2-c2ccccc2)cc1	-4	4	-3	3	-7	-3	-1	i

Shown with two lines to a compound: entries from further up
Value order: eIF4H inh	PABP polyA inh	Yeast UUG start	Env fusion inh	CSC inhib	MT1-MMP act inh	MT1-MMP act inh RFP	Rce1 inh
O=C(NNC(=O)c1sc2ccccc2c1Cl)Nc1ccc(Cl)cc1
    1	-9	-18	nt	12	12	5	i
CCN(CC)CCOC(=O)c1ccc(NC(=O)CSc2nnc(-c3cccs3)n2CC)cc1
    nt	nt	-13	24	nt	-1	-2	nt
COc1ccc(CNC(=O)CSc2n[nH]c(N)n2)cc1
    -9	-4	-18	10	-14	-1	2	i
Cc1cccc(NC(=O)c2sc(C)nc2C)c1
    2	29	-7	-97	6	3	6	i
CN(CC(=O)Nc1ccc(F)cc1[N+](=O)[O-])Cc1ccccc1
    -3	-1	nt	4	-8	1	1	i
Cc1nn(C)cc1CN(C)C(=O)c1ccc(OC2CCN(Cc3ccccn3)CC2)cc1
    14	4	-17	-8	-9	3	-1	i
Cc1ccc(/C=N/Nc2ccc(F)cc2)s1
    1	1	-14	-13	40	-3	-1	i
O=C(Cc1cccs1)N1CCN=C1SCc1cccc(F)c1
    0	0	-12	25	-11	-1	1	i
N/C(=N\c1nc2ccccc2o1)NC(=O)c1cccc(Cl)c1
    2	-6	-20	-2	20	3	-5	i
O=C(CCC(=O)c1cccs1)OCC(=O)c1ccc(Cl)s1
    -2	10	1	nt	-5	10	2	i

Continued:
SMILES	eIF4H inh	PABP polyA inh	Yeast UUG start	Env fusion inh	CSC inhib	MT1-MMP act inh	MT1-MMP act inh RFP	Rce1 inh
COC(=O)c1cc(C(=O)c2c(C)cc3ccccn23)cc([N+](=O)[O-])c1	-3	11	-6	-7	nt	-1	-1	i
COC(=O)Cn1c(C)c(C#N)c2ccccc21	-2	-3	-3	-129	-6	4	6	i
O=C(NC1CCCc2ccccc21)C1CCN(S(=O)(=O)c2cnc[nH]2)CC1 (stereo not drawn)	-1	1	-11	nt	9	-12	-1	nt
Cc1ccc(NS(=O)(=O)c2ccc(-c3ccc(=O)[nH]n3)o2)cc1N(C)C	-12	7	-9	-9	4	-1	-1	i
CCCCCCN1C[C@H](n2cc(COC(=O)c3ccccc3)nn2)[C@@H](O)C[C@@H]1c1ccc(Cl)cc1	nt	nt	-4	11	nt	-3	-3	nt
COc1cc(OC)c(NC(=S)Nc2cccc(C(C)=O)c2)cc1Cl	-4	0	nt	nt	-1	-2	3	i
CC(=O)c1cccc(CN2CCN(CCC(C)C)C(CCO)C2)c1 (stereo not drawn)	0	-4	1	4	5	2	5	i
CCc1nc(SCC(=O)OC)c2c3c(sc2n1)COC(C)(C)C3	5	-1	10	-52	-1	0	2	i
O=C(CCS(=O)(=O)Cc1ccccc1)NCCc1ccccc1	7	17	nt	-3	-9	1	1	i
CCOC(=O)CSCC(=O)Nc1nnc(-c2cccc([N+](=O)[O-])c2)s1	0	4	-22	11	-3	5	3	i
Cc1ccc(S(=O)(=O)N2CCCN(S(=O)(=O)c3ccccc3Br)CC2)cc1	nt	nt	-1	-10	nt	1	-6	nt
Cn1ccnc1Sc1nc(Nc2cccc(Cl)c2)nc(N2CCOCC2)n1	-16	-3	-27	-89	-5	-5	-8	i
O=c1cnc2ccccc2n1Cc1ccc(Br)cc1	-8	11	-24	-13	-11	1	-3	i
COC(=O)c1n[nH]nc1-c1ccccc1	-3	-2	nt	nt	-7	4	6	i
NS(=O)(=O)c1ccc(CCNCc2cc(Cl)ccc2OCc2ccccc2)cc1	-17	-9	-7	17	-5	4	-9	i
COc1ccccc1OCCC(=O)Nc1cccc(S(=O)(=O)N2CCOCC2)c1	nt	nt	-9	6	nt	-1	-2	nt
CC(=O)Nc1cc(-c2cccc(C(=O)NCCO)c2)cn2c(-c3ccc(F)cc3)cnc12	nt	nt	-26	25	nt	-3	-1	nt
Cc1ccc2[nH]c(C(=O)NCCN3CCCC3)cc2c1	2	-12	-19	-13	1	-2	-4	i
C=CCNC(=O)c1ccc(N(Cc2ccc(Cl)cc2)S(C)(=O)=O)cc1	4	-1	-10	3	-5	-5	1	i
CCC(C)[C@H]1CNCCN1CCc1cccc2ccccc12 (stereo partly drawn)	nt	nt	-19	0	0	6	0	i
COc1ccc(OC)c(NC(=O)c2ccc(CN3CCOCC3)cc2)c1	-3	-1	-6	nt	-14	5	1	i

Screens from PubChem.
